VCAM-1 rise = enhancers of VCAM-1 display on endothelial cells, cell-based, plate reader, pooled HUVEC, TNFa stimulus (AID 455); HUVEC TNFa-induced VCAM-1 immunofluorescence, plate reader; numbers were filed only for top-ranked candidate wells; augmentation, % at 5 µM; 10,000 compounds, 0.2% hits;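 active = a compound raising TNF-alpha-driven VCAM-1 surface staining, with its hit status upheld on visual or statistical review; inactive = the rest, including hits rejected on review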;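 note: 0% = TNFa with vehicle and 100% = strongest image-checked hit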
26S disassembly = blocks ATP-dependent breakdown of the yeast 26S proteasome; anti-FLAG beads, GFP-proteasome disassembly, flow cytometry; inhibition of disassembly, % (test concentration not listed); 24,000 compounds, 0.2% hits; AID 751;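 active = above 40%; inconclusive = likely self-fluorescent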;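 note: plate controls were ATP control with full disassembly for no effect and ATP-gamma-S intact proteasomes for full effect; higher percent means more bead fluorescence retained so stronger block of disassembly; stock transfer was 100 nL into about 10 µL; wells with too few beads may also be inconclusive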
* hit, by the source's call; i = inactive; ? = inconclusive; / = not tested or not shown. This is a subset; the hit share may differ from the screen's.

SMILES	VCAM-1 rise	26S disassembly
COC(=O)c1[nH]c(C)c(/C(O)=C2\C(=O)C(=O)N(CCCN3CCOCC3)C2c2ccccn2)c1C (stereo not given)	i	-1.4
COc1cccc(NC(=O)N(CCCN2CCOCC2)C(C)c2cc3cccc(OC)c3o2)c1 (stereo not given)	i	0.8
O=C(Cc1ccc(-n2cccc2)cc1)N1CCc2ccccc21	/	21
CCOC(=O)c1cccc(NC(=O)CS(=O)(=O)Cc2nc(-c3cccc(OC)c3)oc2C)c1	i	3.0
COc1nc(C)nc2c1sc(=S)n2C	/	-0.2
CCC(C)NC(=O)C(Cc1ccccc1)NS(=O)(=O)c1cccc2nsnc12 (stereo not given)	/	-0.2
COc1ccccc1Nc1cc(C(=O)NCCCN2CCOCC2)c2ccccc2n1	/	1.2
COc1ccc2[nH]c3c(=O)n(CCCCC(=O)NCCN4CCCC4)c(=S)[nH]c3c2c1	/	4.0
COc1ccccc1N1CCN(C(=O)c2c(-c3c(Cl)cccc3Cl)noc2C)CC1	i	1.6
COc1ccccc1OCCCn1c(=O)oc2ccccc21	i	0.3
CN(C(=O)c1ccc(S(=O)(=O)NC2CCCC2)cc1)C1CCCCC1	i	1.0
CC1=C(C(=O)N2CCOCC2)C(c2ccsc2)C2=C(CCCC2=O)N1 (stereo not given)	i	-1.1
Cc1onc(-c2ccccc2)c1C(=O)NCc1cccnc1	i	3.1
Cc1cccc(NC(=O)c2cc(S(=O)(=O)NCc3ccco3)ccc2F)c1C	/	-0.1
C=CCn1c2ccccc2c2nnc(SC(CC)C(=O)Nc3nc(C)c(C(=O)OCC)s3)nc21 (stereo not given)	/	0.5
CCCCCCn1c(CN2CCN(Cc3ccccc3)CC2)nc2c1c(=O)n(C)c(=O)n2C	i	2.6
CC1=C(n2nnc3ccccc32)C(c2ccccc2)C(C#N)=C(N)O1 (stereo not given)	i	2.2
C/C(NC1CCCC1)=C(/C#N)C(N)=O	i	-0.1
CC(C)CC(=O)CN1C(=O)C2(OCCO2)c2ccccc21	i	-0.5
COCCn1c(NCc2ccc(C)cc2)nc2c1c(=O)[nH]c(=O)n2C	i	1.3
Cc1c(C(=O)NCc2ccccn2)sc2nc(-c3ccc(F)cc3)cn12	i	0.1
COc1ccc(CC(=O)Nc2c3c(nn2-c2cccc(Cl)c2)CS(=O)(=O)C3)cc1	i	-0.5
COC(=O)[C@H](C)NC(=O)NCc1ccc(F)cc1	i	-0.1
Cc1noc(C(=O)NCc2ccco2)c1Cl	/	0.8
CC(C)CCNC(=O)NC(=O)COc1ccccc1C#N	i	-1.0
Cc1cc(C(=O)COC(=O)C2COc3ccccc3O2)c(C)n1CC1CCCO1 (stereo not given)	i	0.4
O=C(O)C1CCC(=O)N1Cc1ccccc1Cl (stereo not given)	/	0.2
Cc1cc(NC(=O)CC(C)(C)C)nc2c1c(=O)oc1ccccc12	/	9.4
CC1(C)OC(=O)N(c2cccnc2)C1(C)O (stereo not given)	i	-1.3
CS(=O)(=O)N1CCCC(C(=O)N2CCc3ccccc3C2)C1 (stereo not given)	/	-0.7
COc1ccc(Br)cc1CNC(=O)CCN1C(=O)COc2ccccc21	/	2.2
CCOc1cc(C2Nc3ccccc3C(=O)N2c2ccccc2OC)ccc1O (stereo not given)	i	-14
Cc1cccc(NC(=O)CSc2nnc(-c3ccccc3C)o2)c1	i	-0.8
Cc1cccc(Cn2c(SCCN3CCCCC3)nc3c2c(=O)[nH]c(=O)n3C)c1	i	0.6
COCCNC(=O)c1nn(-c2cc(OC)cc(OC)c2)c(=O)c2ccccc12	/	1.6
CCC(=O)N1c2ccccc2NC2=C(C(=O)CCC2)C1c1ccc(N(C)C)cc1 (stereo not given)	/	-3.2
CCCNC(=O)C1CN(S(=O)(=O)c2ccccc2)CCN1S(=O)(=O)c1ccccc1 (stereo not given)	i	-0.3
CC(C)n1c(=NC(=O)c2ccco2)c(C#N)cc2c(=O)n3ccccc3cc21	i	2.6
CCc1ccc(-c2nc(CSCC(=O)NCCCN3CCCC3=O)c(C)o2)cc1	/	0.3
CCOc1nc(NCCC2=CCCCC2)nc(N2CCOCC2)n1	i	5.0
COCCCNC(=O)c1ccc(Cn2c(=O)[nH]c3ccccc3c2=O)cc1	/	-0.2
CS(=O)(=O)c1ncc(Cl)c(C(=O)Nc2ccc(N3CCOCC3)cc2)n1	i	0.5
Cn1c(C(=O)N2CCN(c3ncccn3)CC2)cc2c(=O)n(C)c3ccccc3c21	/	?
CC(NC(=O)C1CC1)C(c1cccs1)N1CCN(c2ccccc2)CC1 (stereo not given)	i	-0.1
CC1=C(C(=O)OC(C)C)C(c2cccnc2)n2ncnc2N1 (stereo not given)	/	0.5
Cc1nc(N2CCN(C)CC2)c2c(C)c(C(=O)Nc3ccc(F)cc3)sc2n1	/	0.2
O=C(Oc1ccc(OC(=O)c2ccncc2)cc1)c1ccncc1	/	0.6
O=C(CSc1nnc(CNC(=O)c2ccccc2F)o1)NCC1CCCO1 (stereo not given)	/	-1.7
CCn1c(=O)c(=O)[nH]c2cc(C(=O)N3CCN(c4ccccc4F)CC3)ccc21	i	?
Cc1ccc(-c2c3c(=O)n(C)c(=O)n(C)c3c3c(C)cc(C)nn23)cc1	/	0.9
O=C(Nc1cnn(Cc2ccc(Cl)cc2Cl)c1)c1noc2c1CCCC2	i	-0.3
CCOC(=O)c1nnn(CC(=O)Nc2cccc(F)c2)c1C(=O)OCC	i	-0.1
N#CCSc1nc2c(sc(=S)n2Cc2ccco2)c(=O)n1-c1ccc(F)cc1	/	0.6
Cc1ccc(C)c(N2CCN(S(=O)(=O)c3ccc4c(c3)oc(=O)n4C)CC2)c1	/	0.8
COc1ccc(S(=O)(=O)Nc2cc(C(=O)NC3CCCCCC3)ccc2N2CCOCC2)cc1	/	-0.3
Cc1nnc(SCC(=O)Nc2ccc(Br)cn2)[nH]c1=O	i	-0.7
COc1ccc(C(=O)Cn2c(=O)c(CCC(=O)O)nn3c4ccccc4nc23)cc1OC	/	-2.0
CCOc1ccc2nc(NC(=O)C(CCSC)NS(=O)(=O)c3cccs3)sc2c1 (stereo not given)	/	-1.8
O=C(CCn1c(=O)oc2ccccc21)Nc1nccs1	/	-0.3
CC(C)(C)c1ccc(C(=O)N2CCC(C(=O)NCc3ccncc3)CC2)cc1	i	2.5

Other compounds follow.
SMILES	VCAM-1 rise	26S disassembly
NCC(O)COc1ccc2c(c1)OCO2 (stereo not given)	i	3.1
CC(CN1CCCCC1)OC(=O)c1ccc2c(c1)OCO2 (stereo not given)	i	-0.2
CC(=O)Nc1c2c3c(cccc3n(C)c1=O)C(=O)c1ccccc1-2	/	0.1
COC(=O)c1ccccc1NC(=O)c1cc(C2CC2)on1	/	-0.2
COc1ccc(-c2noc(CCC(=O)NCCCN3CCC(Cc4ccccc4)CC3)n2)cc1	i	65
Cc1cc(=O)n2nc(N3CCCC(C(=O)N4CCOCC4)C3)sc2n1 (stereo not given)	/	-1.3
COc1ccc(CNC(=O)c2ccc(NC(=O)C3CCCO3)cc2)cc1 (stereo not given)	/	0.8
COc1ccc(C(C)N2CC34C=CC(O3)C(C(=O)OCC(C)C)C4C2=O)cc1 (stereo not given)	i	-0.7
O=C(C1CCN(S(=O)(=O)c2cccc3nsnc23)CC1)N1CCCc2ccccc21	/	-0.7
CN(CC(=O)NC1CCCCC1)S(=O)(=O)c1cccc2cccnc12	/	-0.3
O=C(CCn1c(=O)oc2ccccc21)NCc1ccco1	i	-0.1
COc1ccccc1NC(=O)CN1CCN(CC(=O)Nc2ccc3c(c2)OCO3)CC1	/	0.7
COc1ccc(-c2cc(C(=O)NCc3ccc(Cl)cc3)no2)cc1OC	i	-0.6
O=C1CC(c2cccs2)CC2=C1C(c1ccccc1)n1ncnc1N2 (stereo not given)	i	-0.3
C=CCSc1nnc(-c2cccnc2)o1	i	-0.5
CN1C(=O)c2ccccc2Sc2ccc(NC(=O)NC3CC3)cc21	/	-1.3
CC(=O)c1c(Nc2ccc3c(c2)OCCO3)oc(C)cc1=O	/	?
CC(=O)NCCn1c(SCC(=O)c2ccccc2)nc2ccccc2c1=O	/	0.8
O=C(CCS(=O)(=O)c1ccc(Br)cc1)NCc1cccs1	/	2.9
COCCCNC(CC(=O)Nc1ccc(N(C)C)cc1)C(=O)O (stereo not given)	/	3.6
Cn1c(=O)c2[nH]cnc2n(C)c1=O	i	-1.1
Cc1c(C(=O)OCc2ccccc2)[nH]c2c1C(=O)CC(c1ccco1)C2 (stereo not given)	i	1.4
CCCNC(=O)c1ccccc1C(=O)NCCC	i	-1.0
O=c1c2oc3ccccc3c2ncn1Cc1ccccc1Cl	/	-0.2

The last 4 entries of the part before open the next one.
SMILES	VCAM-1 rise	26S disassembly
Cn1c(=O)c2[nH]cnc2n(C)c1=O	i	-1.1
Cc1c(C(=O)OCc2ccccc2)[nH]c2c1C(=O)CC(c1ccco1)C2 (stereo not given)	i	1.4
CCCNC(=O)c1ccccc1C(=O)NCCC	i	-1.0
O=c1c2oc3ccccc3c2ncn1Cc1ccccc1Cl	/	-0.2
CCCCC(=O)NCCc1cc2ccc(OC)cc2[nH]c1=O	i	-0.4
Nc1nnnn1/N=C/c1ccccc1C(F)(F)F	/	-0.3
O=C(Nc1ccc2c(c1)OCCO2)C1CCN(C(=O)c2ccc(F)cc2)CC1	i	1.6
CCc1cccc(NC(=O)CN(C)S(=O)(=O)c2cccc3nsnc23)c1	i	0.8
CC1=C(C(=O)OC2CCCCC2)C(c2ccc(C)o2)C2=C(CC(C)(C)CC2=O)N1 (stereo not given)	i	9.7
CCOC(=O)c1cnc2c(C#N)c(C)nn2c1C	/	-1.0
Cc1cc(C(F)F)n2ncc(C(=O)NCc3ccccc3C(F)(F)F)c2n1	/	0.0
COc1cc2nc(SCC(=O)NCCc3ccccc3)n(Cc3ccco3)c(=O)c2cc1OC	/	-1.8
CCOC(=O)N1CCN(C(=O)Cc2ccc(-n3c(=S)[nH]c4ccccc4c3=O)cc2)CC1	/	-0.7
Cc1ccc(C(=O)OCC(=O)Nc2ccc3c(c2)OCO3)o1	i	-1.8
COc1cc(OC)c(C2Oc3nc(SC)nnc3-c3ccccc3N2C(C)=O)cc1OC (stereo not given)	/	0.9
CCn1ncc(C2=NOC(C(=O)N3CCC(C(N)=O)CC3)C2)c1C (stereo not given)	i	1.6
CCN(CC)c1ccc2c(c1)CCCN2	i	?
Fc1ccc(NCc2nnc(SCc3nnc(-c4ccccc4)o3)n2CC2CCCO2)cc1 (stereo not given)	i	1.0
CN1C(=O)C(O)(CC(=O)c2ccc(F)cc2)c2cc(Br)ccc21 (stereo not given)	i	2.6
Cc1cc(C)cc(Nc2cc(C)nc3nc(C)nn23)c1	/	0.7
CCOC(=O)N1CCN(C(=O)C2CCCN(S(C)(=O)=O)C2)CC1 (stereo not given)	/	0.8
Cc1ccc(OCC(=O)NCCN2CCCC2)cc1	i	-0.4
Nc1ccc2nc(-c3ccc(Cl)cc3)[nH]c2c1	/	36
O=C1NC(c2ccccc2)(C(F)(F)F)SC2=CCCCCN12 (stereo not given)	i	0.4
O=C(CCNS(=O)(=O)c1ccc(Br)s1)N1CCN(c2ccccc2)CC1	/	0.2
CCCCN1C(=O)C2C(C(=O)Nc3cccc(OC)c3)C3C=CC2(O3)C1C(=O)NC1CCCCC1C (stereo not given)	i	0.6
CCOCCCNCc1ccc(OC)c(OC)c1	/	-1.5
O=C(CN1CCN(C(=O)c2ccco2)CC1)Nc1c2c(nc3c1CCC3)CCCC2	/	0.2
COc1ccc(NC(=O)CCCn2c(=O)[nH]c3ccccc3c2=O)cc1	/	-1.5
Cc1oc(-c2cccc(Cl)c2)nc1CN1CCCC(C(=O)NC(C)c2ccc3c(c2)OCCO3)C1 (stereo not given)	/	13
O=C(C1CCN(c2nnc(-n3cccc3)s2)CC1)N1CCN(Cc2ccc3c(c2)OCO3)CC1	i	2.0
CCCCn1c(CCC(=O)O)ccc1-c1cccs1	/	0.7
O=C(C1CC1)N1CCc2cc(Br)cc(S(=O)(=O)NC3CCCCC3)c21	/	1.2
CCOC(=O)C1CCN(C(c2cccnc2)c2c(NC(=O)c3ccco3)sc(C)c2C)CC1 (stereo not given)	/	1.1
Cc1cc(N(CN2CCCC2=O)C(=O)c2ccc(F)cc2)no1	/	0.1
Cc1onc(-c2ccccc2Cl)c1C(=O)NCc1cccnc1	i	-0.2
COc1ccccc1C1C(C(N)=O)=C(C)Nc2nc(-c3ccc(Cl)cc3)nn21 (stereo not given)	/	-1.0
C=CCOC(=O)C1C(=O)CC(C)(O)C(C(=O)OCC=C)C1c1ccc(OC)cc1 (stereo not given)	/	-1.1
CCOC(=O)N1CCC(NC(=O)CSc2cc(=O)n(C)c3ccc(Cl)cc23)CC1	/	-0.9
COc1ccc(OC)c(Nc2cc(C)nc3nc(C)nn23)c1	/	0.8

Full records from above. Screens in order: VCAM-1 rise | 26S disassembly
Results for COc1ccc(NC(=O)CCCn2c(=O)[nH]c3ccccc3c2=O)cc1 = / | -1.5
Results for CCC(=O)N1c2ccccc2NC2=C(C(=O)CCC2)C1c1ccc(N(C)C)cc1 (stereo not given) = / | -3.2
Results for COc1cc(OC)c(C2Oc3nc(SC)nnc3-c3ccccc3N2C(C)=O)cc1OC (stereo not given) = / | 0.9
Results for CCCCn1c(CCC(=O)O)ccc1-c1cccs1 = / | 0.7
Results for CC1=C(n2nnc3ccccc32)C(c2ccccc2)C(C#N)=C(N)O1 (stereo not given) = i | 2.2

Remaining list, next part:
SMILES	VCAM-1 rise	26S disassembly
CCCNC(=O)NS(=O)(=O)c1ccc(Cl)cc1	i	-0.4
CCOc1ccc(N(CC(=O)NC2CCCCC2)S(=O)(=O)c2c(C)noc2C)cc1	i	0.8
CCC(=O)N1CCCc2cc(S(=O)(=O)N3CCCc4ccccc43)ccc21	i	0.5
CCc1ccccc1NC(=O)c1cc(C2CC2)on1	/	1.9
